Bioassay records from PubChem BioAssay.
HSV replic up: HSV replication enhancement; actives 0.005% (n = 220,000); HSV replication augmentation in cells, fold increase; maximum fold increase;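 active = peak rise of 1.5-fold or more in the series; tested in PC3 cells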;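 also: first round at 10 µM; read as green reporter fluorescence; hits show the peak of a series up to 25 µM; 1 = signal of infected wells without compound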
GALR2 ag: agonists of human galanin receptor 2 (GALR2); GALR2-expressing cells, agonist activation read-out; actives 0.48% (n = 140,000); AID 803; activation, %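 (tested at 5 µM)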;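 active = above mean plus 3 SD of all compounds, about 5% in these data, not always enough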;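 also: 0% = vehicle buffer wells and 100% = reference agonist at full effect; tested in CHO reporter cells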
Target sequence (O43603 whole entry, looked up): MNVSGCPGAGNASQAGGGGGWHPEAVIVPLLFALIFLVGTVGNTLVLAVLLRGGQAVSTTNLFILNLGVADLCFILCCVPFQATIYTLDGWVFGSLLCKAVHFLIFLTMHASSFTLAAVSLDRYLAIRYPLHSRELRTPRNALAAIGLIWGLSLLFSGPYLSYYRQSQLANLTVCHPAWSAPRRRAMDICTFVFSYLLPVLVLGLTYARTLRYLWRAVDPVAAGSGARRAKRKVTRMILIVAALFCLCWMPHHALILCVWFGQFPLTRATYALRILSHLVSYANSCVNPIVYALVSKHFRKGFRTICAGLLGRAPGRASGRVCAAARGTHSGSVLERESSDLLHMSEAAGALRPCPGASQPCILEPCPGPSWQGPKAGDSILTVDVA
PKD1 kinase inh: inhibitors of human PKD1 kinase. Q15139. PKD1 kinase fluorescence polarization assay. inhibition, %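 (about 10 µM by stock and volumes)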. actives 0.056% (n = 200,000);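 active = inhibition of 50% or more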;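 also: controls were vehicle for no effect and a reference inhibitor for full effect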
INS promoter inh: TRM-6 insulin promoter activity inhibition | TRM-6 cells (human fetal islet line), insulin promoter-eGFP reporter, imaging; reporter expression induced with tamoxifen | actives 0.9% (n = 130,000) | AID 1273 | inhibition, % at 2 µM;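 active = inhibition above the mean plus 3 SD, with well images judged a real hit on visual review, cut at about 60% in these data, passing the limit was not always enough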
RGS16-Gao HTS: regulators of human RGS16-Galphao interaction | binding response (% of control), % at 10 µM | actives 0.38% (n = 220,000) | bead-based flow cytometry RGS16-Galphao binding, fluorescence; actives lie on both sides;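 active = below 25% or above 175%, edge rows of some plates excepted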;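 also: Galphao activated by GDP with aluminum fluoride before binding; 100% = wells without compound and 0% = beads without RGS; some results beyond the cut were filed as inactive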
INS promoter inh cell count: recorded beside INS promoter inh, whose call it bears; normalized cell count, %; measured here: cell count, toxicity; reference of the scale not given here;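 cells exposed to compound for 48 h; stained nuclei by imaging scaled within each plate; lower means fewer cells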
HSV replic up primary fold: recorded beside HSV replic up, whose call it bears; fold increase; compound at 10 µM; measured here: primary screen fold increase 10 uM; tested in PC3 cells;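 GFP signal in the first replicate; 1 = infected wells without compound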
Numbers without * were called inactive; i = inactive; / = not tested or not shown. An unsorted share of the library (roughly 1.3% active in at least one column).

| no. | canonical_smiles | HSV replic up | HSV replic up primary fold | GALR2 ag | PKD1 kinase inh |
| --- | --- | --- | --- | --- | --- |
| 1 | CCc1nc(NCC2CCCO2)c2oc3ccccc3c2n1 (configuration not stated) | i | 0.99 | -0.5 | -2 |
| 2 | COc1ccc(OC)c(C(c2nnnn2Cc2ccccc2)N2CCN(C3CCCCC3)CC2)c1 (configuration not stated) | i | 0.96 | -0.2 | -2 |
| 3 | CCCCC/C=C\C[C@H](O)/C=C/c1cccc(C[C@H](O)CCCCO)n1 | i | 0.82 | -1.9 | 2 |
| 4 | O=C(Nc1ccc(S(=O)(=O)Nc2nccs2)cc1)c1cccc(N2C(=O)c3ccccc3C2=O)c1 | i | 1 | / | -8 |
| 5 | CCn1c(=O)cc(OCC(=O)NCc2ccco2)c2ccccc21 | i | 0.6 | -2.9 | 0 |
| 6 | O=C(/C=C/c1ccccc1)Oc1coc(CSc2ncccn2)cc1=O | i | 0.9 | / | 1 |
| 7 | CNC(=O)CSc1nnc(-c2cc(C)cc(C)c2)o1 | i | 0.68 | -1.8 | -3 |
| 8 | CCCC(=O)Nc1nc2nc(-c3ccccc3)cc(-c3ccccc3)n2n1 | i | 0.86 | -2.1 | 7 |
| 9 | Cc1sc2ncnc(Nc3ccccc3)c2c1C | i | 0.95 | 0.9 | 5 |
| 10 | Cc1nn(-c2ccccc2)c(C)c1C(=O)OCC(=O)NC(=O)NC1CCCCC1 | i | 0.94 | -2.5 | -10 |

| no. | INS promoter inh | INS promoter inh cell count | RGS16-Gao HTS |
| --- | --- | --- | --- |
| 1 | / | / | 108 |
| 2 | -52 | 96 | -155 |
| 3 | 29 | 125 | 88 |
| 4 | / | / | 105 |
| 5 | / | / | 42 |
| 6 | -42 | 96 | 102 |
| 7 | 33 | 123 | 109 |
| 8 | 16 | 51 | 109 |
| 9 | / | / | 106 |
| 10 | -58 | 149 | 98 |

Other compounds.
| no. | canonical_smiles | HSV replic up | HSV replic up primary fold | GALR2 ag | PKD1 kinase inh |
| --- | --- | --- | --- | --- | --- |
| 11 | COc1ccc2nc(NC(=O)CCc3ccc(OC)c(OC)c3)sc2c1 | i | 0.91 | / | -3 |
| 12 | CC(=O)Nc1ccc(S(=O)(=O)N(CC(=O)O)Cc2ccccc2)cc1 | i | 0.75 | -0.4 | -5 |
| 13 | CCOCCCNC(=O)CCNS(=O)(=O)c1ccc(C)cc1 | i | 1 | -0.5 | 0 |
| 14 | Cc1ccccc1N1CCN(C(=S)c2ccc(-c3cccc([N+](=O)[O-])c3)o2)CC1 | i | 1 | / | 11 |
| 15 | CCOC(=O)COc1ccc2c(c1)C(=O)CC(C)(C)O2 | i | 1.1 | -1.0 | 0 |
| 16 | O=C(N/N=C/C=C/c1ccc(Br)cc1)C(O)c1ccccc1 (configuration not stated) | i | 0.92 | -1.9 | 2 |
| 17 | CSCCC(NS(=O)(=O)c1ccc2c(c1)oc(=O)n2C)C(=O)NCc1cccs1 (configuration not stated) | i | 1.1 | / | / |
| 18 | Cc1cc(C)nc(N(C#N)C(C)C(=O)N(C)C)n1 (configuration not stated) | i | 1 | -1.7 | -2 |
| 19 | Cc1nn(C)c(Cl)c1CN1CCN(C2CCCC2)C(CCO)C1 (configuration not stated) | i | 0.72 | / | 3 |
| 20 | COc1ccc(NC(=O)CC2C(=O)N(C)C(=S)N2Cc2cccs2)cc1 (configuration not stated) | i | 0.87 | -1.8 | 0 |

| no. | INS promoter inh | INS promoter inh cell count | RGS16-Gao HTS |
| --- | --- | --- | --- |
| 11 | / | / | 97 |
| 12 | 0 | 79 | 102 |
| 13 | 71 | 95 | 103 |
| 14 | -82 | 140 | 103 |
| 15 | / | / | 101 |
| 16 | 15 | 121 | 114 |
| 17 | / | / | 103 |
| 18 | -25 | 62 | 119 |
| 19 | / | / | 268 |
| 20 | -38 | 103 | 103 |

Additional compounds follow.
| no. | canonical_smiles | HSV replic up | HSV replic up primary fold | GALR2 ag | PKD1 kinase inh |
| --- | --- | --- | --- | --- | --- |
| 21 | CN(Cc1ccccc1)Cc1nc2c(c(=O)n(C)c(=O)n2C)n1CCc1ccccc1 | i | 0.77 | -0.5 | 3 |
| 22 | COc1ccc2c(=O)c3c(=O)n(Cc4ccco4)c(-c4ccc(C)cc4)nc3oc2c1 | i | 0.78 | -0.3 | -12 |
| 23 | CCNc1ccc(C(=O)N/N=C/c2c(C)nn(-c3ccccc3)c2N2CCCC2)cc1[N+](=O)[O-] | i | 0.82 | -1.2 | 8 |
| 24 | CCOc1ccc(-n2c(C)cc(/C=N/NC(=O)C(N)=O)c2C)cc1 | i | 0.9 | / | 2 |
| 25 | C=CCNC(=S)Nc1cc(S(=O)(=O)N2CCOCC2)ccc1-n1cncn1 | i | 1 | -0.8 | 0 |
| 26 | CCOC(=O)c1ccccc1NC(=O)CC1SC(=NC)N(C)C1=O (configuration not stated) | i | 1 | -0.9 | -11 |
| 27 | O=C(NCc1ccc(Cl)cc1)c1cccc(NC(=O)c2ccccc2)c1 | i | 0.71 | -1.7 | 0 |
| 28 | CS(=O)(=O)N(CC(=O)NCc1ccncc1)c1cc(Cl)cc(Cl)c1 | i | 1.1 | -1.5 | 2 |
| 29 | CCCn1c(SCC(=O)N2CCc3ccccc32)nnc1-c1ccco1 | i | 1 | 2.0 | -1 |
| 30 | CCCc1nnc(NC(=O)c2cn(CC)c3cc(N4CCN(C)CC4)c(F)cc3c2=O)s1 | i | 0.88 | / | / |

| no. | INS promoter inh | INS promoter inh cell count | RGS16-Gao HTS |
| --- | --- | --- | --- |
| 21 | -350 | 120 | / |
| 22 | 29 | 145 | 89 |
| 23 | -7 | 108 | 100 |
| 24 | 37 | 87 | 100 |
| 25 | 3 | 89 | 22 |
| 26 | -54 | 100 | 97 |
| 27 | 22 | 168 | 111 |
| 28 | / | / | 102 |
| 29 | / | / | 101 |
| 30 | / | / | 95 |

The listing continues.
| no. | canonical_smiles | HSV replic up | HSV replic up primary fold | GALR2 ag | PKD1 kinase inh |
| --- | --- | --- | --- | --- | --- |
| 31 | COc1c(C(=O)Nc2ccc3[nH]c(=O)[nH]c3c2)cc2ccccc2c1Br | i | 0.77 | / | -11 |
| 32 | O=C(NCc1cccs1)c1cccnc1SCCS(=O)(=O)c1ccc(C(F)(F)F)cn1 | i | 0.81 | / | / |
| 33 | Cc1ccc(NC(=S)NCCSc2ccc(Cl)cc2)cc1 | i | 0.92 | / | 1 |
| 34 | CSc1sc(-c2nnc(SCC(=O)Nc3ccccc3)n2C)c2c1C=CCC2 | i | 1 | / | / |
| 35 | CCOC(=O)c1sc(NC(=O)c2ccc(S(=O)(=O)N3CCOCC3)cc2)cc1C | i | 0.99 | 0.1 | -8 |
| 36 | Cc1ccc(/C=C2\SC(=S)N(C3CCS(=O)(=O)C3)C2=O)cc1 (configuration not stated) | i | 0.83 | / | 3 |
| 37 | CCOC(=O)CC12CN3CN(C1)CC(CC(=O)OCC)(C3)C2=O | i | 1.2 | 0.0 | -8 |
| 38 | CSc1nnc(-c2sc3cc(Cl)ccc3c2Cl)n1C | i | 0.95 | -0.8 | -8 |
| 39 | O=C1NCC(c2ccccc2)C1C(=O)N/N=C/c1ccc(Cl)s1 (configuration not stated) | i | 0.87 | / | 5 |
| 40 | COc1ccc(CC(=O)NC2CC(C)(C)NC(C)(C)C2)cc1 | i | 0.85 | -0.3 | 0 |

| no. | INS promoter inh | INS promoter inh cell count | RGS16-Gao HTS |
| --- | --- | --- | --- |
| 31 | / | / | 105 |
| 32 | / | / | 96 |
| 33 | 36 | 56 | 100 |
| 34 | / | / | 100 |
| 35 | 23 | 111 | 103 |
| 36 | 21 | 118 | 104 |
| 37 | 36 | 110 | 98 |
| 38 | -6 | 56 | 105 |
| 39 | -71 | 107 | 104 |
| 40 | -84 | 64 | 102 |

Continued:
| no. | canonical_smiles | HSV replic up | HSV replic up primary fold | GALR2 ag | PKD1 kinase inh |
| --- | --- | --- | --- | --- | --- |
| 41 | Cc1csc(SC(C)C(=O)Nc2ccc(S(=O)(=O)N3CCCC3)cc2)n1 (configuration not stated) | i | 0.77 | -1.5 | -5 |
| 42 | O=C(OCc1nc2ccccc2s1)c1cccc(S(=O)(=O)N2CCOCC2)c1 | i | 0.95 | 1.6 | 9 |
| 43 | CCCc1ccc(-c2cc(NC(=O)CSc3n[nH]c(N)n3)n(-c3ccccc3)n2)cc1 | i | 0.73 | -3.8 | 4 |
| 44 | Cc1ccc2cc(CN(CC3CCCO3)C(=S)NCc3ccco3)c(=O)[nH]c2c1 (configuration not stated) | i | 0.91 | / | -5 |
| 45 | Cc1c(C(=O)N2CCN(c3ccccn3)CC2)cccc1[N+](=O)[O-] | i | 1.1 | / | -3 |
| 46 | CCn1c2c(c3ccc(OC)cc31)CCCC2=O | i | 0.91 | -1.7 | -10 |

| no. | INS promoter inh | INS promoter inh cell count | RGS16-Gao HTS |
| --- | --- | --- | --- |
| 41 | -9 | 127 | 102 |
| 42 | / | / | 198 |
| 43 | -22 | 62 | 102 |
| 44 | / | / | 100 |
| 45 | -24 | 100 | 98 |
| 46 | 47 | 107 | 95 |

Reformatted as labelled records: part of the list above
43: CCCc1ccc(-c2cc(NC(=O)CSc3n[nH]c(N)n3)n(-c3ccccc3)n2)cc1
- HSV replic up: i
- HSV replic up primary fold: 0.73
- GALR2 ag: -3.8
- PKD1 kinase inh: 4
- INS promoter inh: -22
- INS promoter inh cell count: 62
- RGS16-Gao HTS: 102
44: Cc1ccc2cc(CN(CC3CCCO3)C(=S)NCc3ccco3)c(=O)[nH]c2c1 (configuration not stated)
- HSV replic up: i
- HSV replic up primary fold: 0.91
- GALR2 ag: /
- PKD1 kinase inh: -5
- INS promoter inh: /
- INS promoter inh cell count: /
- RGS16-Gao HTS: 100
45: Cc1c(C(=O)N2CCN(c3ccccn3)CC2)cccc1[N+](=O)[O-]
- HSV replic up: i
- HSV replic up primary fold: 1.1
- GALR2 ag: /
- PKD1 kinase inh: -3
- INS promoter inh: -24
- INS promoter inh cell count: 100
- RGS16-Gao HTS: 98
46: CCn1c2c(c3ccc(OC)cc31)CCCC2=O
- HSV replic up: i
- HSV replic up primary fold: 0.91
- GALR2 ag: -1.7
- PKD1 kinase inh: -10
- INS promoter inh: 47
- INS promoter inh cell count: 107
- RGS16-Gao HTS: 95
